Screens from PubChem BioAssay.
VDR inh = blocks the human vitamin D receptor; P11473; VDR-SRC2-3 peptide fluorescence polarization, 2 h; Potency, µM, inactives show max response, negative = inhibition, hits mostly inhibitors; 400,000 compounds, 0.93% hits; active means well fitted inhibition curve with a large enough effect; inconclusive means small, poorly fitted or top-dose-only effect, or another doubt; inactive means no such curve, though single readings can be large or run the other way; further: series mostly up to about 120 µM
Target sequence (P11473 whole entry, looked up): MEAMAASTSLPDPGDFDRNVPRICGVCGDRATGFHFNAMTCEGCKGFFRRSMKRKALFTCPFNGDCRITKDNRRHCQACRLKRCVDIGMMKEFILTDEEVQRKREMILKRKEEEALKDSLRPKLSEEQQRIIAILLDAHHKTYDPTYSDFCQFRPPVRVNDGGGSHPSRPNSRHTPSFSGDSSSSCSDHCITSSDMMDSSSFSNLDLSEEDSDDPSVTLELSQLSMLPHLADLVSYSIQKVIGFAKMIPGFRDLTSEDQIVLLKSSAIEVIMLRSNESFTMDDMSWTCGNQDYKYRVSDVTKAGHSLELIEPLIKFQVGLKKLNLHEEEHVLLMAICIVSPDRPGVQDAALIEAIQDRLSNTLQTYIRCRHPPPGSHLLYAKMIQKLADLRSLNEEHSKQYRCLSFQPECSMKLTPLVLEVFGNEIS
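Signal is fluorescence polarization, reporting how far test compounds block the interaction of VDR with the SRC2-3 coregulator peptide after a 2 h room-temperature incubation.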
* = called active by the depositor; u = inconclusive; & = joins results of further samples. On the % scale 0 is the no-effect control and ±100 the full control effect; potency means the concentration at half of the fitted maximal effect.

VDR inh	Molecule
-3.0%&-20.5%&-17.4%	COCCOC(=O)C1=C(C)NC(C)=C(C(=O)OC/C=C/c2ccccc2)C1c1cccc([N+](=O)[O-])c1 (centres undefined)
-6.2%	COCCNC(=O)C(c1ccc(F)cc1)N(CC1CCCO1)C(=O)CCC(=O)Nc1ccccn1 (centres undefined)
-9.2%	O=S(=O)(c1ccc(Cl)cc1)N1CCC(O)(c2cccnc2)CC1
-24.5%	O=C(CN(c1ccccc1)S(=O)(=O)c1ccccc1)N/N=C/c1ccco1
8.6%	CCC1=NN2C(=N)/C(=C\c3cccn3-c3cccc(Cl)c3)C(=O)N=C2S1
3.2%	O=C(Nc1cnn(C23CC4CC(CC(C4)C2)C3)c1)c1cc(-c2ccccc2)on1
-1.5%	O=C(O)CCCN1C(=O)c2ccc(C(=O)c3cccc([N+](=O)[O-])c3)cc2C1=O
-7.8%	COc1ccc(/C=N/NC(=O)c2cccc([N+](=O)[O-])c2)cc1OC(=O)c1ccc(C)cc1
5.0%	Clc1ccc(-c2nnc3sc(Cc4cccs4)nn23)cc1
4.2%	NC(N)=N/N=C/c1ccc(OS(=O)(=O)c2ccccc2)cc1
10.6%	Cc1ccc(CN2CCN(Cc3nc4ccccc4nc3C)CC2CCO)cc1 (centres undefined)
-23.2%	Cc1ccccc1OCC(=O)Nc1ccc2oc(-c3ccc(F)cc3)nc2c1
-0.8%	O=[N+]([O-])c1nn(-c2ccc3c(c2)OCCO3)n(O)c1=NC1CCCCC1
-6.1%	C=CCn1c(COc2ccccc2)nnc1SCC(=O)C(C)(C)C
-22.4%	CCCCCC(=O)Nc1ccc2oc(-c3cncc(Br)c3)nc2c1
-6.7%	O=C(OC(C(=O)NCc1cccs1)c1ccc(F)cc1)c1ccco1 (centres undefined)
8.3%	COc1ccc(Cn2ccc3nc(C)c(C(=O)Nc4ccc(OC)cc4)cc3c2=O)cc1
-1.6%	CC(C)Oc1cccc(C(=O)Nc2ccc(N3CCN(S(C)(=O)=O)CC3)cc2)c1
11.1%	COc1cccc(N2C(=O)CN(Cc3ccc(OC)c(OC)c3)C2=S)c1
8.7%	Cc1ccc(NC(=O)c2ccc3c(c2)C(=O)N(c2ccccc2C)C3=O)nc1
1.9%	COc1ccc(-c2cn3c(n2)sc2cc(C(=O)NCC(C)c4ccccc4)ccc23)cc1 (centres undefined)
-5.6%	Cn1c(=O)c2c(nc(CN3CCCCC3)n2CCCc2ccccc2)n(C)c1=O
10.1%	Cc1c(NC(=S)NC(=O)c2cccc(Br)c2)c(=O)n(-c2ccccc2)n1C
15.5%	Cc1ccc2nc(N(CCCN(C)C)C(=O)c3ccc(S(=O)(=O)N4CCc5ccccc5C4)cc3)sc2c1
-20.6%	COc1ccc(N2CCN(C(=S)Nc3ccc(C)cc3)CC2)cc1
-4.1%	CCOc1ccccc1CNC(=O)c1c([N+](=O)[O-])c(C)nn1C
24.1%	N/C(=N\OC(=O)/C=C/c1ccccc1)c1ccc(Cl)cc1
-10.3%	CCOC(=O)CCCNC(=O)CN1CCC(c2nc3ccccc3s2)CC1
5.8%	COc1ccc(CCNC(=O)CSc2n[nH]c(-c3ccccc3Cl)n2)cc1OC
6.6%	Nc1nonc1NC(=O)CSc1ncccc1C(=O)O
0.7%	CC(C)[N+](C)(C)CC(O)CN(c1ccccc1)c1ccccc1 (centres undefined)
u	COC(=O)c1sc(NC(=O)COc2ccc(OC)cc2)nc1C
4.0%	Cc1cccc2sc(NNC(=O)C3=COCCO3)nc12
3.5%	O=C(CSc1ccc(-c2ccccn2)nn1)N1CCc2ccccc21
-1.0%	CC(=O)N1c2ccc(S(=O)(=O)N3CCC(C(=O)NC4CCCCC4C)CC3)cc2CC1C (centres undefined)
15.3%	CN(Cc1ccccc1)C(=O)CSc1nnc(-c2ccco2)n1-c1ccccc1
u	CC1CCC(C(C)C)C(=O)/C1=C/c1ccc(N)cc1 (centres undefined)
-0.5%	COc1ccccc1C(=O)N1CCN(c2ccc(N3CCOCC3)nn2)CC1
-0.8%	COc1ccc(S(=O)(=O)N(CCc2ccccc2)CC(=O)Nc2cc(C)ccc2C)cc1
10.1%	O=C(Nc1cc(S(=O)(=O)N2CCCCC2)ccc1N1CCOCC1)c1cc(=O)[nH]c2ccccc12

Molecules shown so far containing a Cl atom:
VDR inh	Molecule
-9.2%	O=S(=O)(c1ccc(Cl)cc1)N1CCC(O)(c2cccnc2)CC1
8.6%	CCC1=NN2C(=N)/C(=C\c3cccn3-c3cccc(Cl)c3)C(=O)N=C2S1
5.0%	Clc1ccc(-c2nnc3sc(Cc4cccs4)nn23)cc1
24.1%	N/C(=N\OC(=O)/C=C/c1ccccc1)c1ccc(Cl)cc1
5.8%	COc1ccc(CCNC(=O)CSc2n[nH]c(-c3ccccc3Cl)n2)cc1OC

A second format for 2 compounds above:
| Structure | VDR inh |
| --- | --- |
| COC(=O)c1sc(NC(=O)COc2ccc(OC)cc2)nc1C | u |
| COc1cccc(N2C(=O)CN(Cc3ccc(OC)c(OC)c3)C2=S)c1 | 11.1% |

The list continues:
VDR inh	Molecule
8.3%	COc1ccc(CNC(=O)c2cccc(N3CCCS3(=O)=O)c2)cc1
-0.8%	COc1ccc(N(CC(=O)N/N=C(\C)c2ccc(OC)c(OC)c2)S(=O)(=O)c2ccccc2)cc1
-1.8%	O=C(CSc1nnc(COc2ccccc2Cl)o1)NC(=O)NC1CCCC1
0.1%	CC(=O)Nc1ccc(C(=O)OCC(=O)N2CC3(C)CC2CC(C)(C)C3)cc1 (centres undefined)
-6.4%	CCOC(=O)c1cnn(CCOC(=O)c2ccc(OC)cc2)c1NC(=O)c1ccc(OC)cc1
12.9%	COc1ccccc1C(=O)Nc1ccc2oc(-c3ccc(F)cc3)nc2c1
-6.5%	COc1ccccc1OCc1nnc(SCCN2CCOCC2)o1
-17.4%	O=C(/C=C/c1ccccc1)Nc1nnc(-c2ccco2)o1
5.4%	CC(=O)Nc1ncc(Cc2cccc(Cl)c2)s1
-23.6%	Cc1c(C(=O)Nc2ccccn2)oc2ccc(Br)cc12
-6.2%	CC(=O)c1ccc(NC(=O)CSc2nnc3ccc(-c4ccc(F)cc4)nn23)cc1
-7.4%	CCCCCNCc1cccn1C
-9.1%	COc1ccc(S(=O)(=O)N2CCCCC2)cc1NC(=O)c1cc(C)on1
-22.4%&4.9%	CCc1ccc(C2CC(=O)Nc3c2c(=O)nc2c(C)cccn32)cc1 (centres undefined)
1.3%	COC(=O)c1sccc1NC(=O)c1c(C)noc1C
7.8%	CC(C)CN(CC(C)C)S(=O)(=O)N1CCC(C(=O)NC2CCCCCCC2)CC1
2.7%	CCOC(=O)N1CCN(C(=O)CS(=O)Cc2nc(-c3ccc(C)cc3)oc2C)CC1 (centres undefined)
-6.8%	COc1ccccc1N1CCN(CC(O)COCCOc2ccc(Br)cc2)CC1 (centres undefined)
3.5%	O=C(COC(=O)C1(c2ccccc2)CC1)NNC(=O)c1ccccc1
-6.4%	COc1ccccc1C/C(N)=N/OC(=O)c1ccc2c(c1)OCO2
9.6%	COCCn1nnnc1C(c1cccs1)N1CCN(c2cc(C)ccc2C)CC1 (centres undefined)
-5.7%	Cc1ccc(C)c(OCCCC(=O)Nc2nccs2)c1
9.9%	O=C(NCc1ccccc1)C1CCCN(S(=O)(=O)c2cccs2)C1 (centres undefined)
-9.2%	Cc1ccc(NC(=O)Nc2cccnc2)cc1NC(=O)Nc1cccnc1
-10.0%&-19.6%	COCCNC(=O)Cn1c(=O)n(CCCCCC(=O)Nc2ccccc2)c(=O)c2sccc21
-4.1%	COc1ccc(N=Cc2c(O)n(-c3cccc(C)n3)c(=O)c3ccccc23)cc1
-25.8%	CCc1c(C)sc(NC(=S)NC(C)C2CCCO2)c1C(=O)OC (centres undefined)
8.2%	O=C(CSc1nc2ccccc2s1)NC1CCCC1
1.4%	O=C(NCC12CC3CC(CC(C3)C1)C2)c1nc2ncccn2n1
27.4%	Cc1ccc2c(n1)sc1c(-c3ccc(Br)cc3)c(C#N)c(N)nc12
2.0%	COc1cc(C(C)=O)ccc1COc1ccc(C(=O)OC(C)C(=O)NC(N)=O)cc1OC (centres undefined)
-2.1%	CSc1cccc(NC(=O)Cn2c3ncccc3c(=O)n2-c2ccc(C)cc2)c1
10.6%	COc1cccc(CN2CC(C(=O)N3CCN(C(C)C)CC3)CCC2=O)c1 (centres undefined)
9.4%	O=S(=O)(Nc1cccc(-c2cn3ccsc3n2)c1)c1ccc(F)cc1
-3.0%	COc1ccc(-c2noc(N3CCC(C(=O)Nc4ccc(F)cc4Cl)CC3)n2)cc1
-8.5%	N#CCCN1CCN(CCC#N)C1=S
12.5%	Cc1cc(N2CCOCC2)nc2ccc(NC(=O)C3CCC(C)CC3)cc12 (centres undefined)
16.8%	Cc1ccc2cc(CCNC(=O)c3ccco3)c(=O)[nH]c2c1
-14.3%	Cc1ccc(OCc2cc(C(=O)N(C)Cc3nccn3C)no2)cc1C
-4.4%	CCOC(=O)/C(=C/c1cn(C)c2ccccc12)NC(=O)c1ccccc1
-23.9%	CCCc1ccc2oc(C(=O)N3CCC(COC)C3)c(C)c2c1 (centres undefined)
u	CC(=O)OCC1OC(n2c(S)c(C#N)c(-c3ccccc3)c(C#N)c2=O)C(OC(C)=O)C(OC(C)=O)C1OC(C)=O (centres undefined)
-8.2%	Cc1nnc(SCC(=O)Nc2ccc3c(c2)OCCO3)s1
0.5%	CCOc1ccc(CCn2c3c(c(=O)[nH]c2=O)C(NC(=O)c2cccc(F)c2)(C(F)(F)F)C(=O)N3)cc1OCC (centres undefined)
u	CNC(=S)N1CCC(NC(=O)C23CC4CC(CC(C4)C2)C3)CC1
0.6%	COCCn1c(SCC(=O)Nc2cc(C(C)(C)C)nn2-c2ccccc2)nc2ccccc2c1=O
-5.9%	COc1nccnc1NS(=O)(=O)c1ccc(N/C=C2\CCCCC2=O)cc1
1.2%	Cc1onc(-c2ccccc2)c1C(=O)NC(=S)NNC(=O)c1cc(-c2ccc(F)cc2)n[nH]1
-1.8%&4.4%	CCc1nn(CC(=O)NCCCc2ccccc2)c(=O)c2cc3c(OC)cccc3n12
-15.1%	CCn1nnnc1SCC(=O)N(C)C1CCS(=O)(=O)C1 (centres undefined)
-4.2%	CC(=O)Nc1ccc(/C=C/c2nc3ccccc3o2)cc1
-16.6%	Cc1ccc(NC(=O)NNc2cccc(Cl)n2)cc1
-8.8%	O=C(/C=C/c1ccco1)NC(=S)Nc1ccccn1
-18.1%	Cc1cc(=O)oc2cc(OCC(=O)Nc3ccc(S(=O)(=O)N(C)C)cc3)ccc12
17.2%	Cc1nnc(SCC(=O)N2c3ccccc3CC2C)s1 (centres undefined)
4.3%	Cn1c(-c2ccc3ccccc3n2)[n+](C)c2ccccc21
-4.0%	CCCn1c(C)cc(C(=O)COC(=O)CN=C2NS(=O)(=O)c3ccccc32)c1C
11.7%	Cc1cc(-c2nnnn2-c2cc(Cl)cc(Cl)c2)no1
-12.5%	Cc1onc(-c2c(Cl)cccc2Cl)c1NC(=O)NNc1c(Cl)cncc1Cl
3.5%	Cc1ccccc1-c1cc(-n2ccnc2)ncn1

(further entries)
VDR inh	Molecule
2.7%	COc1ccc(C2=NN(CC(=O)NCC(OC)OC)C(=O)CC2)cc1
4.4%	COc1cc(C(C#N)N2N=C(c3ccccc3)CC2c2ccccc2)ccc1O (centres undefined)
-22.9%	CN(C)CCNC(=S)Nc1ccc(F)c(F)c1F
-4.6%	COC(=O)C1C(O)=C(C=Nc2ccccc2)C(=O)CC1(C)C (centres undefined)
-1.9%	Cc1sc2nc(CN3CCCC3)nc(NCc3ccncc3)c2c1C
-14.9%	CC(=O)c1ccc(NC(=O)Nc2cccc(Cl)c2)cc1
-1.9%	CN(CC(=O)Nc1ccc(OC(F)(F)F)cc1)C1CCCCC1
-1.4%	Cc1c(CCOC(=O)C23CC4CC(CC(C4)C2)C3)sc[n+]1CC#N
-21.1%	N#CC1C=Cc2ccccc2N1C(=O)c1ccccc1 (centres undefined)
-14.5%	O=C(CNCc1ccccn1)Nc1ccc([N+](=O)[O-])cc1C(=O)Nc1ccccc1F
8.7%	O=C(Nn1c(-c2ccccc2)nc2ccccc2c1=O)c1cccs1
-2.0%	C=CC[C@@H](CC(=O)OC(C)(C)C)C(=O)OC[C@@H]1CCCN1C(=O)[C@H](CC=C)CC(=O)NCCO
1.7%	O=C(Nc1noc2ccccc12)c1c(F)cccc1F
-9.8%	CCOc1ccc(S(=O)(=O)N2CCN=C2c2ccccc2)cc1
-22.1%	COc1ccc(-c2cn(CCC(=O)NCc3ccc(C)cc3)c(-c3ccncc3)n2)cc1
-15.0%	Cc1ccc(/C=N/NC(=O)c2ccc(Br)o2)s1
-11.1%	O=S(=O)(c1ccccc1)N1CN(c2ccc(F)cc2F)c2nc3ccccc3nc21
-11.0%	CN(C)CCCN1C(=O)c2oc3ccc(Cl)cc3c(=O)c2C1c1cccnc1 (centres undefined)
-7.6%	COC(=O)CCc1nc2cc(Cl)ccc2n(Cc2ccccc2)c1=O
-1.7%	CNc1ccc(S(=O)(=O)NCC(=O)OC(C)C(=O)N(C)Cc2ccccc2)cc1[N+](=O)[O-] (centres undefined)

2 of these compounds in another layout:
SMILES,VDR inh
CNC(=S)N1CCC(NC(=O)C23CC4CC(CC(C4)C2)C3)CC1,u
COCCn1c(SCC(=O)Nc2cc(C(C)(C)C)nn2-c2ccccc2)nc2ccccc2c1=O,0.6%

Remaining list, next part:
VDR inh	Molecule
4.7%	Cc1ccc(C(=O)CCC(=O)Nc2cccc(C(F)(F)F)c2)cc1
9.5%	COc1ccc(CC(=O)N2CCC(n3nccc3NC(=O)C3CCOC3)CC2)cc1 (centres undefined)
-14.4%	O=C(O)[C@H](Cc1ccccc1)Nc1ccc([N+](=O)[O-])cn1
0.9%	CCc1ccc(S(=O)(=O)NCCc2csc(-c3ccccc3)n2)s1
-27.9%	CCOc1cc([N+](=O)[O-])cc(/C=C2/NC(=O)N(Cc3ccccc3F)C2=O)c1O

Not all compounds are listed; rates above refer to the full screens.
